Screening results: PubChem BioAssay, National Center for Advancing Translational Sciences (NCATS)
gsp ag = qHTS for Agonist of gsp, the Etiologic Mutation Responsible for Fibrous Dysplasia/McCune-Albright Syndrome: qHTS; gsp mutant cells, cAMP HTRF, 30 min; control for the full effect not named in the record; Potency, µM (top dose mostly 76.9 µM), inactives show top-dose activation (cAMP increase), usual class: activators; hit rate 0.13% among 340,000; AID 624287, 2012; active = well fitted activation curve with a large enough effect; inconclusive = small, poorly fitted or top-dose-only effect, or another doubt; inactive = no such curve, though single readings can be large or run the other way; cell line not stated here;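 note: phosphodiesterase inhibitor Ro 20-1724 added with compounds to block cAMP breakdown; potency is the fitted concentration of half-maximal effect; nearly all actives have a fitted effect of over 60% in size; about a fifth of the inactives were tested at one dose only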
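Cells stably selected in G418 were plated at 2000/well, grown 16-24 hr, then given compounds in DMSO with the PDE inhibitor […] (300 uM solution added) for 30 min at 37C; cAMP was read by HTRF.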
Sfp PPTase inh = qHTS Assay for Inhibitors of Bacillus subtilis Sfp phosphopantetheinyl transferase (PPTase); 4'-phosphopantetheinyl transferase ffp (Bacillus subtilis), Q9F4F7; Biochemical Sfp PPTase activity, qHTS; Potency, µM, for the others: max response, negative = inhibition, hits mostly inhibitors; hit rate 3.5% among 310,000; AID 1490, 2009; active = well fitted inhibition curve with a large enough effect; inconclusive = small, poorly fitted or top-dose-only effect, or another doubt; inactive = no such curve, though single readings can be large or run the other way;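 note: the enzyme is Sfp with the accession as filed and its product quenches rhodamine fluorescence; potency is the fitted concentration of half-maximal effect; 0% = enzyme reaction without inhibitor and -100% = no enzyme wells; top concentration of the series not given in the record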
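Buffer: 50 mM Hepes-Na pH 7.6, 10 mM MgCl2, 0.01% Nonidet P-40, 0.01% BSA. Enzyme 15 nM, pre-exposed to compound 15 min; substrates then added and fluorescence change tracked over 30 min.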
D2 PAM = Beta-Arrestin HTS for Positive Allosteric Modulators of the Human D2 Dopamine Receptor: Potentiators. D(2) dopamine receptor (Homo sapiens), P14416. DiscoveRx D2 beta-arrestin cells, luminescence, 90 min; 100% = 57 uM dopamine signal. potentiation, % (test concentration not listed). hit rate 0.23% among 360,000; active = potentiation of 50% or more; inconclusive = 30% to 50%; inactive = 30% or less;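 note: compound concentration not given in the record; tested on top of an EC20 dose of dopamine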
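PathHunter D2 cells, attached overnight at 37 deg C, received compound in DMSO plus dopamine at EC20 (50 nM final) for 90 min at 37 deg C. Beta-arrestin recruitment was read as luminescence after 1 h with detection reagent at ambient temperature.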
Menin MLL FP FL = qHTS Assay for Inhibitors Targeting the Menin-MLL Interaction in MLL Related Leukemias: Competition With Fluorescein Labeled MLL-derived Peptide. Fluorescence polarization, fluorescein-MLL peptide displacement from menin. FP activity change, % at 61.4 µM. 290,000 tested, under 10 active. AID 1766, 2009; inconclusive = falling polarisation curve, or a change in total fluorescence; inactive = total fluorescence flat and polarisation flat or rising; no compound was filed as active; the % refers to the polarisation; negative = inhibition;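 note: % of control where 0% means no effect; inhibitors lower the polarisation; unlabelled MLL peptide was the positive control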
TRPV1 potentiator = HTS Assay for Compounds that Act as Potentiators of the Vanilloid Receptor 1; potentiation, % at 8.33 µM; Transient receptor potential cation channel subfamily V member 1 (Homo sapiens), Q8NER1; TRPV1-expressing cells, Fluo-8 calcium influx, capsaicin EC20 potentiation; host cell line not named in the record; control for the full effect not named in the record; hit rate 0.02% among 320,000; active means potentiation above 80%; inconclusive means 30% to 80%; inactive means below 30%; note: 0% is about no effect
Target sequence (Q8NER1 whole entry, looked up): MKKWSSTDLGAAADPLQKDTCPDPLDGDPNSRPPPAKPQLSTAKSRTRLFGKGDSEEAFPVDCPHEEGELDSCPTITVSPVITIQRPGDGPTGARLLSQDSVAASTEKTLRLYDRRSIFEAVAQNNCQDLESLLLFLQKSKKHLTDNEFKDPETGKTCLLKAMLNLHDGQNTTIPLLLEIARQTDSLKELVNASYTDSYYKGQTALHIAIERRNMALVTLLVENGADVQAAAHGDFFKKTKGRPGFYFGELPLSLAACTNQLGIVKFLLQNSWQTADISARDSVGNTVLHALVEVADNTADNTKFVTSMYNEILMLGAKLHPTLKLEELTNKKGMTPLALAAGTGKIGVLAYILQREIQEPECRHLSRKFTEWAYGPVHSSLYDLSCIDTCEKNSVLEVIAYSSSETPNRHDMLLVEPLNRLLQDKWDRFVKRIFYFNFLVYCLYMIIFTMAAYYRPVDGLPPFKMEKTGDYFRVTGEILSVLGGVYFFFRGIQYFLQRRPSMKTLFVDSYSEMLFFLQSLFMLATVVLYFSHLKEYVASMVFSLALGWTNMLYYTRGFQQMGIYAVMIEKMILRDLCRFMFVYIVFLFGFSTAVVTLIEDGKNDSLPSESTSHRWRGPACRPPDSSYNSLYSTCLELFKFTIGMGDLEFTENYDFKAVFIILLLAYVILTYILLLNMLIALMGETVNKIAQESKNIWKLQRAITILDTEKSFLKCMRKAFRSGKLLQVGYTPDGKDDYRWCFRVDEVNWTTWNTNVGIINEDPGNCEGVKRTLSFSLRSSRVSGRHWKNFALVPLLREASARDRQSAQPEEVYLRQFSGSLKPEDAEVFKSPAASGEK
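Cells expressing TRPV1 were dye-loaded with Fluo-8 and read kinetically: 10 s baseline, 3 min after compound (agonist portion), then 2 min after EC20 capsaicin (allosteric enhancer portion). Calcium-bound dye fluorescence at 480/520 nm.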
ClpP mod = qHTS Assay for Activators of ClpP | ATP-dependent Clp protease proteolytic subunit (Bacillus subtilis (strain 168)), P80244 | purified B. subtilis ClpP, FRET peptide cleavage, 20 min | Potency, µM (top dose mostly 57.5 µM), without a hit: at the top dose activity change, negative = active | hit rate 1.9% among 340,000; active = well fitted falling curve with a large enough effect; inconclusive = small, poorly fitted or top-dose-only effect; inactive = no such curve, though single readings can be large or run the other way; note: potency is the fitted concentration of half-maximal effect; the source files actives as falling curves though it sought activators and does not explain the sign; nearly all actives have a fitted effect of over 65% in size; many hits overshoot -100%
Target sequence (P80244 whole entry, looked up): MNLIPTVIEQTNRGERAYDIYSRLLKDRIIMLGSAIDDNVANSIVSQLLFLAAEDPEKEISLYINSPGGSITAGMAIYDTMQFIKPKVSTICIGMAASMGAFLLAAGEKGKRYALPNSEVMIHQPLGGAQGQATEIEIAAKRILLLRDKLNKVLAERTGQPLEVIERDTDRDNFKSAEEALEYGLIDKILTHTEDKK
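ClpP 10 microg/mL final, pH 8 Tris/KCl buffer with BSA, glycerol, Tween-20; compound pinned in; FRET-FV substrate; RT 20 min; Ex320/Em430; ΔFRET vs ADEP 5.8 microM, DMSO, no enzyme.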
gsp antagonist = qHTS for Antagonists of gsp, the Etiologic Mutation Responsible for Fibrous Dysplasia/McCune-Albright Syndrome: qHTS. Potency, µM (doses to about 76.9 µM), without a hit: top-dose activity change, negative = inhibition, usual class: inhibitors. gsp-mutant cells, cAMP HTRF, 30 min; control for the full effect not named in the record. hit rate 0.4% among 340,000; active = falling curve of any shape with a large fitted effect; inconclusive = falling curve, mostly with a smaller effect; inactive = flat or rising curve; cell line not stated here;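 note: intracellular cAMP measured with PDE inhibitor Ro 20-1724 present during compound exposure; potency is the fitted concentration of half-maximal effect; % is set by controls: 0 for no effect and ±100 for the full control effect; nearly all actives have a fitted effect of over 65% in size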
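Cells in G418 medium, seeded 16-24 h, 37C; buffer exchange to DPBS + 1 mM CaCl2, 0.5 mM MgCl2, 0.05% BSA; cpds in DMSO + […] (300 uM stock), 30 min 37C; HTRF cAMP detection.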
Active calls of the source: *; u = inconclusive; x = no result given; [ ] = dose if it differs, or a comment. Hits appear at their usual frequency, and some 5.1% of all compounds hit somewhere here.

structure,Sfp PPTase inh,gsp antagonist,gsp ag,ClpP mod,Menin MLL FP FL,D2 PAM,TRPV1 potentiator
C=CCOC(=O)C1CC=CCC1C(=O)Oc1ccc(F)cc1F (stereo unspecified),15%,-6%,-62%[inhibitor],-1.8%,-1.7,-10,-8
CC(C)(CO)NC(=O)CC1C(=O)NCCN1Cc1ccc(-c2ccccc2)cc1 (stereo unspecified),12%,9%,23%,x,0.1,-2,-8
CC1CCc2c(sc(NC(=O)Cn3nc(C(=O)O)c4ccccc4c3=O)c2C#N)C1 (stereo unspecified),0%,-3%,28%,0.5%,2.3,-2,5
COc1cccc2cc(C(=O)c3ccccc3)oc12,u,7%,-1%,-0.8%,2.4,-9,-15
O=C(CCCc1c[nH]c2ccccc12)N[C@@H](Cc1c[nH]c2ccccc12)C(=O)O,9%,3%,4%,-7.1%,-3.5,-11,1
CCS(=O)(=O)N1CCC(C(=O)N2CCN(c3ccccc3)CC2)CC1,3%,4%,-30%[inhibitor],-0.3%,3.2,-1,0
CC(C)CCn1c(SCC#N)nc2c(sc3ccccc32)c1=O,4%,-1%,0%,28%,2.2,0,-1
CCn1c(SCC(=O)c2ccc(O)c(O)c2)nnc1-c1ccccc1OC,-21%,-10%[15.4 µM],-19%,1.0%,-1.4,u,u
Cc1cc(S(=O)(=O)N2CCOCC2)ccc1OCC(=O)N1CCOCC1,2%,11%,-19%[15.4 µM],-0.7%,1.5,-7,-2
Cc1nccc2[nH]c(=O)c(C(=O)NCCCN(C)C3CCCCC3)cc12,8%,x,x,x,-0.6,x,5
C/C(=N\NC(=O)Cc1ccc(Br)cc1)c1cccnc1,2%,7%,u,-0.9%,x,-26,8
Cc1ccc(C(CCN)c2ccco2)cc1 (stereo unspecified),9%,9%,-5%,-3.7%,1.7,-9,-14
COc1ccc(CCNC(=O)C(=O)NCC2OCCN2S(=O)(=O)c2cc(F)ccc2F)cc1OC (stereo unspecified),12%,-2%,-9%,-3.1%,0.5,-2,-4
O=S(=O)(NCCc1ccccn1)c1ccc(-c2ccccn2)s1,-1%,-5%,10%,-13%,0.8,-9,-4
O=S(=O)(c1cccc(COc2ccc(Cl)cc2Cl)c1)N1CCOCC1,0%,-11%,-27%,-0.8%,x,13,-12
COc1ccc(-n2nc3c(c2NC(=O)c2ccco2)CS(=O)(=O)C3)cc1,-1%,11%,0%,0.3%,3.9,-11,3
O=C1CCC(C(=O)OCC(=O)Nc2cc(Cl)ccc2F)=NN1,x,8%,6%[15.4 µM],-1.4%,x,-4,x
Cc1cnc(C(=O)OCC(=O)NCCCc2ccccc2)cn1,15%,11%,4%[15.4 µM],x,-0.2,-5,5
CC(C)CCN1CCN(Cc2nc(-c3ccccc3)cs2)CC1CCO (stereo unspecified),9%,9%,0%[15.4 µM],x,0.9,-12,6
O=C(Nc1nccs1)C1CCCN1S(=O)(=O)c1ccc(Cl)cc1 (stereo unspecified),9%,5%,5%,1.8%,1.5,-15,-17

Exported with values under each structure: entries from further up
Below each compound – Sfp PPTase inh | gsp antagonist | gsp ag | ClpP mod | Menin MLL FP FL | D2 PAM | TRPV1 potentiator
O=S(=O)(NCCc1ccccn1)c1ccc(-c2ccccn2)s1
→ -1% | -5% | 10% | -13% | 0.8 | -9 | -4
O=S(=O)(c1cccc(COc2ccc(Cl)cc2Cl)c1)N1CCOCC1
→ 0% | -11% | -27% | -0.8% | x | 13 | -12
COc1ccc(-n2nc3c(c2NC(=O)c2ccco2)CS(=O)(=O)C3)cc1
→ -1% | 11% | 0% | 0.3% | 3.9 | -11 | 3
O=C1CCC(C(=O)OCC(=O)Nc2cc(Cl)ccc2F)=NN1
→ x | 8% | 6%[15.4 µM] | -1.4% | x | -4 | x
Cc1cnc(C(=O)OCC(=O)NCCCc2ccccc2)cn1
→ 15% | 11% | 4%[15.4 µM] | x | -0.2 | -5 | 5
CC(C)CCN1CCN(Cc2nc(-c3ccccc3)cs2)CC1CCO (stereo unspecified)
→ 9% | 9% | 0%[15.4 µM] | x | 0.9 | -12 | 6

The list continues.
structure,Sfp PPTase inh,gsp antagonist,gsp ag,ClpP mod,Menin MLL FP FL,D2 PAM,TRPV1 potentiator
CCOc1cc(-c2noc(CCCC(=O)NC3CCCCC3)n2)ccc1OC,13%,-14%,-24%,x,-2.4,1,0
OCC(O)C(O)C(O)c1cnn(-c2ccccc2)n1 (stereo unspecified),x,5%,-3%,x,x,4,x
CC1CN(c2nc3c(c(=O)n(C)c(=O)n3C)n2Cc2c(Cl)cccc2Cl)CC(C)O1 (stereo unspecified),x,-30%,-3%[15.4 µM],x,x,1,x
COc1ccc(C(=O)N2CC(=O)Nc3ccccc32)cc1S(=O)(=O)N1CCOCC1,19%,13%,-64%[inhibitor],1.7%,0.8,8,-3
Cc1ccc(N(CC(=O)NC(C)(C)C)C(=O)CS(=O)CC(=O)Nc2ccc3c(c2)OCO3)cc1 (stereo unspecified),4%,4%,31%,2.4%,2.2,-2,1
Cc1ccc(S(=O)(=O)Nc2c(C)n(C)n(-c3ccccc3)c2=O)cc1C(=O)OC(C)C(=O)N(C)c1ccccc1 (stereo unspecified),9%,-34%,-27%[15.4 µM],x,-2.4,5,1
Cc1ccsc1/C=N/n1cnc2sc(C)c(C)c2c1=O,-5%,-1%,-24%,32µM*,4.6,0,13
C#CCNC(=O)C(C)c1ncc(C(F)(F)F)cc1Cl (stereo unspecified),-2%,-4%,-10%[15.4 µM],x,-0.7,-1,3
O=C(O)c1c(C(=O)O)c(-c2ccc(F)cc2)n2c1CCC2,17%,-1%,-12%,x,9.8,0,24
Cc1c(N2C(=O)c3cccc4cccc(c34)C2=O)cnn1C,18%,9%,19%[15.4 µM],0.3%,-7.6,-6,-5
CN(C)/C=N/c1c(C#N)cnn1-c1ccccc1,14%,3%,-14%,1.0%,2.3,-2,x
Cc1cc2nc(-c3cccc(NC(=O)c4ccc(Br)o4)c3C)oc2cc1C,13%,9%,-15%,-13%,-1.7,-16,12
Cn1ncc(Br)c1C(=O)N1CCCC1,9%,-10%,-6%[15.4 µM],-0.7%,x,-7,-14
Cc1cc(/C=C2\SC(=S)N(Cc3ccco3)C2=O)c(C)n1-c1cccnc1,2%,2%,-26%,-4.0%,u,-15,5
CCc1c(C)nc2c(C#N)c(C)[nH]n2c1=O,15%,-14%,u,u,4.3,-21,-5
CCC(CC)C1=NN2C(=N)/C(=C\c3cc(C)n(-c4cccc(C)c4)c3C)C(=O)N=C2S1,-17%,-6%,3%,0.6%,x,-29,u
COc1ccc(S(=O)(=O)n2nc(C)c(S(=O)(=O)N3CCOCC3)c2C)cc1OC,4%,x,x,x,3.9,x,6
CCOC(=O)N1CCN(C(=O)c2ccc3c(=O)n(Cc4ccccc4)c(=S)[nH]c3c2)CC1,-2%,-13%,-16%,-0.7%,6.0,-19,x
Cc1nn(-c2ccccc2)c2nc(C(F)F)cc(C(F)F)c12,x,-1%,-36%,-20%,x,1,28
Cc1sc2ncn(CC(=O)N3CCCC(C)C3)c(=O)c2c1S(=O)(=O)N1CCCCC1 (stereo unspecified),24%,0%,-13%,x,-0.5,-3,1
CC(C)C(=O)Nc1cccc(C(=O)Nc2ccc(S(=O)(=O)Nc3nccs3)cc2)c1,23%,4%,33%,x,6.1,-6,12
Cc1ccccc1-c1ncc(CN2CCN(C3CCCC3)C(CCO)C2)cn1 (stereo unspecified),0%,5%,14%,1.4%,-0.7,-20,4
O=C1c2ccccc2C(=O)N1CC(O)CN1CCOCC1 (stereo unspecified),20%,18%,2%,-1.0%,0.9,-5,4
Cc1ccc(CNC(=O)COc2cc(O)c3c(c2)OC(C)(C)CC3=O)cc1,2%,-8%,x,0.2%,-8.1,3,-13
Cc1ccc(S(=O)(=O)N(CC2CO2)c2cc(Cl)ccc2Cl)cc1 (stereo unspecified),17%,3%,17%[15.4 µM],x,-1.1,-7,-1
Cc1cccc(CN2C3=NCCCN3c3ccccc32)c1,9%,9%,-43%[inhibitor],1.0%,-0.3,-2,-5
COC(=O)c1ccccc1S(=O)(=O)N1CCC(C(=O)Nc2ccccc2N2CCOCC2)CC1,x,-3%,11%,1.2%,x,2,x
COc1ccc(CCNC(=O)/C(C#N)=C/c2ccc(OCC(=O)NCC3CCCO3)cc2)cc1OC (stereo unspecified),17%,x,15%[15.4 µM],x,4.6,-17,11
Nc1c(S(=O)(=O)c2ccccc2)c2nc3ccccc3nc2n1Cc1ccco1,20µM*,-13%,-1%,16µM*,u,-5,2
